Rango release inh: inhibitors of RanGTP-induced Rango-importin beta complex dissociation | AID 540253 | O95149+P62826 | Biochemical FRET Rango-importin beta, RanGTP-induced dissociation | 340,000 compounds, 0.071% hits | Potency, µM (titrated, usually from 46.1 µM), for inactives: at the highest dose activity change, negative = inhibition; active means falling FRET ratio curve, often poorly fitted, with flat reads before Ran was added; inconclusive means other falling curves, or compound fluorescence or quenching; inactive means flat or rising ratio curve;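 also: potency is read from the fitted curve at half-maximal effect; % of control where 0% means no effect; nearly all actives have a fitted effect of over 45% in size; -100% = wells without RanGTP and RCC1; the record marks most hits as doubtful in a second field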
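Rango/importin beta premix (0.1/0.25 uM final), PBS + 1 mM DTT + 0.02% Tween-20 + 0.1% BSA; cpd 5 min RT; FRET pre-read; + RanGTP-RCC1 (0.6 uM Ran, 2 mM GTP, 0.2 uM RCC1); 45 min RT; FRET post-read, ex 430, em 486/530 nm.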
Rango-impB inh: Rango-importin beta binding inhibition. Rango CFP/YFP FRET sensor + importin beta, 45 min. Potency, µM (doses to about 92.2 µM), for inactives: at the highest dose inhibition of complex formation. 340,000 compounds, 0.031% hits. AID 540263; active = rising FRET ratio curve, often small or poorly fitted; inconclusive = mostly compound fluorescence or quenching in the first reads; inactive = flat curves in all reads;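 also: potency is read from the fitted curve at half-maximal effect; 0% = DMSO wells and 100% = buffer wells lacking importin beta; nearly all actives have a fitted effect of over 15% in size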
Target sequence (Q14974 whole entry, looked up): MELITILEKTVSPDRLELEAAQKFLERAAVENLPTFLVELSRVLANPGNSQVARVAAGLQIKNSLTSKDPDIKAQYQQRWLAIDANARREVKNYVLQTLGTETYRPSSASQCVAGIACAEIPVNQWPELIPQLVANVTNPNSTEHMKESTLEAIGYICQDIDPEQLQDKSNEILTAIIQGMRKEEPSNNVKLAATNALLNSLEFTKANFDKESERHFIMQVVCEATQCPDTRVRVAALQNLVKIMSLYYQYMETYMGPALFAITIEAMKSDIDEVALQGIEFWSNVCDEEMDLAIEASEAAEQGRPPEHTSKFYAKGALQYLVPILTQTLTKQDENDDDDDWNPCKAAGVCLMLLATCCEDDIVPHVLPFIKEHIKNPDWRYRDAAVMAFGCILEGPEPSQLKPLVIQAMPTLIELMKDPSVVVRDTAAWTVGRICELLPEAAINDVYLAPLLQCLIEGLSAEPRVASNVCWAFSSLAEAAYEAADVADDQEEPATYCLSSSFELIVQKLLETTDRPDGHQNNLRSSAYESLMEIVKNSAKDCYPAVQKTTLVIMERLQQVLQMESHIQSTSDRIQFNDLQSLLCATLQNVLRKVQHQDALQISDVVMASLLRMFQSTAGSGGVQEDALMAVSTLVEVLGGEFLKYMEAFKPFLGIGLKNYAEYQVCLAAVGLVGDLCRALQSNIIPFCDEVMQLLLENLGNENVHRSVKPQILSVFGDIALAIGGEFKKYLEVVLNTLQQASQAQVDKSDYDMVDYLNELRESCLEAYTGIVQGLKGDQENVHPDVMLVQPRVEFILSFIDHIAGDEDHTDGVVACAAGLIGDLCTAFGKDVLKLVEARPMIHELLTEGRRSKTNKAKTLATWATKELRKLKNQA
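Inhibition scored from the CFP 486 nm/YFP 530 nm FRET ratio 45 min after adding 0.125 microM importin beta to 50 nM Rango biosensor preincubated 5 min with compound (room temperature, PBS with DTT, Tween-20, BSA). No-importin wells as positive control.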
miR-21 reporter: miR-21 reporter, rising signal | HeLa miR-21 FLuc reporter, luciferase, 48 h | Potency, µM (top dose mostly 38.3 µM), inactives show top-dose reporter change, positive = more light | 340,000 tested, under 10 active | AID 2288; active = well fitted rising curve with a large enough effect; inconclusive = small, poorly fitted or top-dose-only effect; inactive = no such curve, though single readings can be large or run the other way;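 also: % of control where 0% means no effect; miR-21 action dims this reporter so a rising signal means less miR-21 action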
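HeLa miR-21-FLuc reporter line, endogenous miR-21; 2000 cells/well in DMEM/10% FBS; compound titration up to ~40uM final, 48 h, 37 degree Celsius; luciferase detection reagent, 15 min lysis, CCD luminescence.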
GLA inh pH 4.5: alpha-galactosidase A (human) inhibition, pH 4.5. P06280. purified enzyme, 4-MU-alpha-Gal fluorescence, pH 4.5. activity change, negative = inhibition, % at 105 µM. 230,000 tested, under 10 active; inconclusive = small, poorly fitted or top-dose-only inhibition, or a rising curve; inactive = flat fitted curve, though single readings scatter; no compound was filed as active;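 also: 0% = full activity with enzyme and -100% = basal without enzyme; dose as in the result columns while the protocol names 77 µM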
Active calls of the source: *; u = inconclusive; x = not tested or not shown; [ ] = dose if it differs, or a comment. This is a subset. The share of hits here may be higher or lower than overall.

Key to letters: A = Rango release inh; B = Rango-impB inh; C = miR-21 reporter; D = GLA inh pH 4.5
Cc1cc(NC(=O)c2ccco2)ccc1NC(=O)Cc1cccs1
  A = -8%; B = 1.1%; C = -50%; D = -8
COc1ccc(C(=O)NCC(=O)NCC(=O)OCc2ccc(Cl)cc2)cc1
  A = 0%; B = 1.3%; C = 0%; D = x
COc1ccccc1N(CC(=O)N1CCN(c2ccc(F)cc2)CC1)S(=O)(=O)c1ccc(C)cc1
  A = -16%; B = -1.2%; C = -1%; D = x
C/C(=N\NC(=O)Cc1ccc([N+](=O)[O-])cc1)c1cccnc1
  A = 0%; B = 5.1%; C = -8%; D = x
CN1C(=O)N(C)C2C1NC(=O)N2C (stereo not drawn)
  A = -5%; B = -0.9%; C = -1%; D = 3
CCSc1nnc(NC(=O)c2cc(-c3ccc(C)c(C)c3O)n[nH]2)s1
  A = 15%; B = -3.0%; C = -6%; D = 3
CC(C)(C)N(Cc1ccccc1)C(=O)COC(=O)CCN1C(=O)C2CC=CCC2C1=O (stereo not drawn)
  A = -3%; B = -0.6%; C = x; D = x
CC(C)NC(=S)N1CCn2c(nc3ccccc32)C1
  A = -10%; B = -3.7%; C = -9%; D = 1
O=C(OCCCN=C1NS(=O)(=O)c2ccccc21)c1cccs1
  A = -11%; B = -2.7%; C = -3%; D = 9
CC(C)C(=O)Nc1ccc(N2CCN(S(C)(=O)=O)CC2)cc1
  A = 15%; B = -1.3%; C = -5%; D = 5
Cc1nnc(SC2CC(=O)N(c3ccccc3)C2=O)s1 (stereo not drawn)
  A = -3%; B = -0.4%; C = -5%; D = 1
COc1cccc(C2=CC(=O)C[C@H](c3ccc(F)cc3)C2)c1
  A = 11%; B = 0.8%; C = x; D = x
O=C(CCCCCBr)N1CCC(CC2CC(c3ccc(Cl)cc3)=NO2)(C(=O)NCC2CCCCC2)CC1 (stereo not drawn)
  A = 1%; B = 7.1%; C = 0%; D = x
CCOC(=O)Cc1cc(OC)c(OC)cc1Cc1cc(OC)c(OC)cc1CC(=O)OCC
  A = 3%; B = 0.8%; C = -6%; D = -19
CCCNC(=O)C(Cc1ccccc1F)NC(=O)c1ccccn1 (stereo not drawn)
  A = 14%; B = u; C = x; D = x

Later entries:
Key to letters: A = Rango release inh; B = Rango-impB inh; C = miR-21 reporter; D = GLA inh pH 4.5
CCOc1ccc(N2CC(C(=O)NCCN3C(=O)S/C(=C\c4cccnc4)C3=O)CC2=O)cc1 (stereo not drawn)
  A = -5%; B = -3.1%; C = -1%; D = 6
O=C(O)c1cc2ccccc2c2cc(Br)ccc12
  A = -10%; B = u; C = -5%; D = -3
Cn1c(-c2cccc3ccccc23)n[nH]c1=S
  A = -11%; B = -2.0%; C = -2%; D = 3
CN(c1ccccc1)S(=O)(=O)c1ccc2[nH]c(=O)[nH]c2c1
  A = -9%; B = 3.9%; C = -3%; D = x
Cc1cc(NC(=O)/C(C#N)=C\c2ccc(-c3ccc(SC(F)F)cc3)o2)n(-c2ccccc2)n1
  A = u; B = u; C = x; D = x
CCCCN(Cc1ccccc1)C(=O)C1CCN(Cc2sccc2C)CC1
  A = -9%; B = 7.2%; C = -1%; D = -5
CC(C)C(=O)Nc1cccc(-c2nc3ccccc3c(=O)o2)c1
  A = 2%; B = -3.8%; C = -1%; D = -6
COc1ccccc1CC(NC(C)=O)C(=O)N1CCN(C(=O)c2cccs2)CC1 (stereo not drawn)
  A = -1%; B = -0.1%; C = -1%; D = 4
COc1ccc(S(=O)(=O)NCc2ccc(C(=O)NCc3cccnc3)cc2)cc1
  A = x; B = x; C = 2%; D = 4
Cc1ccc(S(=O)(=O)N2CCOCC2)cc1NC(=O)COC(=O)c1ccc2c(c1)OCCO2
  A = -2%; B = -2.8%; C = 0%; D = -12
O=C(CN1CCOCC1)Nc1ccc(Cl)c(Cl)c1
  A = 2%; B = -2.3%; C = -20%; D = x
COC(=O)c1ccc2c(=O)[nH]c(CCl)nc2c1
  A = 0%; B = -0.2%; C = 1%; D = 7
COc1ccc(-c2ccc3c(N)c(C(=O)NC(C)C)sc3n2)cc1OC
  A = u; B = u; C = -28%; D = 1
CCCCc1cc(=O)oc2cc(OCC(=O)NCCN3CCOCC3)ccc12
  A = 0%; B = 1.3%; C = -3%; D = x
COCCn1c(C)cc(/C=C(\C#N)C(=O)OCC(=O)N(C)c2c(N)n(Cc3ccccc3)c(=O)[nH]c2=O)c1C
  A = 8%; B = -0.8%; C = x; D = x

Some of these compounds in order of their number in Rango release inh, lowest first:
SMILES | Rango release inh
Cn1c(-c2cccc3ccccc23)n[nH]c1=S | -11%
O=C(O)c1cc2ccccc2c2cc(Br)ccc12 | -10%
CCOc1ccc(N2CC(C(=O)NCCN3C(=O)S/C(=C\c4cccnc4)C3=O)CC2=O)cc1 (stereo not drawn) | -5%
Cc1ccc(S(=O)(=O)N2CCOCC2)cc1NC(=O)COC(=O)c1ccc2c(c1)OCCO2 | -2%
COc1ccccc1CC(NC(C)=O)C(=O)N1CCN(C(=O)c2cccs2)CC1 (stereo not drawn) | -1%
CC(C)C(=O)Nc1cccc(-c2nc3ccccc3c(=O)o2)c1 | 2%

The list goes on.
Key to letters: A = Rango release inh; B = Rango-impB inh; C = miR-21 reporter; D = GLA inh pH 4.5
CO/N=C(/CNC(=O)c1ccccc1Cl)c1ccc(Cl)cc1
  A = 5%; B = -1.3%; C = -17%; D = 0
CCOC(=O)/C(=N/Nc1ccc(OC)cc1)Sc1nnc(CCc2ccccc2)n1-c1ccccc1
  A = -13%; B = -0.3%; C = -31%; D = 4
CNS(=O)(=O)c1ccc(NC(=O)C2CC(=O)N(c3ccc(Cl)cc3)C2)cc1 (stereo not drawn)
  A = 4%; B = 0.7%; C = -2%; D = 0
COc1ccc(C2Nc3ccccc3C(=O)N2c2ccc(C)cc2)cc1Cn1nc(C)c([N+](=O)[O-])c1C (stereo not drawn)
  A = -11%; B = -1.9%; C = -60%; D = -1
Cc1ccc(OCC(=O)Nc2oc(-c3ccccc3)c(-c3ccccc3)c2C#N)cc1
  A = -12%; B = 0.5%; C = x; D = x
CCCN1CCC(NC(=O)CC2C(=O)NCCN2Cc2ccccc2C)CC1 (stereo not drawn)
  A = 22%; B = 1.5%; C = 1%; D = x
O=C(Cc1ccccc1)N1CCN(c2ncccn2)CC1
  A = -7%; B = -0.2%; C = -3%; D = 0[21.1 µM]
O=C(CSc1ccccc1F)NCCN1C(=O)CSC1=O
  A = 2%; B = -0.7%; C = x; D = x
Cc1ccc(-c2cc(C(=O)Nc3ccccc3C)c3ccccc3n2)o1
  A = -11%; B = -0.3%; C = -3%; D = 1
COc1ccc(OCCOC(=O)c2nc3nccc(C)n3n2)cc1
  A = 3%; B = 0.7%; C = 3%; D = 8
CCOC(=O)Nc1sc(C(=O)N(CC)CC)c(C)c1C(=O)OCC
  A = 0%; B = 2.0%; C = -6%; D = 2
CCC(=O)OCC(=O)Nc1cc(S(=O)(=O)N(C)C)ccc1Cl
  A = -12%; B = -1.9%; C = -1%; D = 4
COc1ccc(CNC(=O)Cn2ncn3c(cc4ccccc43)c2=O)cc1
  A = 10%; B = -1.5%; C = 1%; D = 5
CCCCCCC(=O)N(O)C1CC(=O)N(c2ccc(Cl)cc2)C1=O (stereo not drawn)
  A = 0%; B = 3.2%; C = -10%; D = 9
CCNC(=S)N1CCCC(C(N)=O)C1 (stereo not drawn)
  A = 1%; B = -0.4%; C = -2%; D = 1

Shown with two lines to a compound: two of the compounds above
Results follow in this order: Rango release inh, Rango-impB inh, miR-21 reporter, GLA inh pH 4.5
- O=C(Cc1ccccc1)N1CCN(c2ncccn2)CC1
→ -7%, -0.2%, -3%, 0[21.1 µM]
- O=C(CSc1ccccc1F)NCCN1C(=O)CSC1=O
→ 2%, -0.7%, x, x

Returning to the listing; the 2 compounds before the break are reprinted first.
Key to letters: A = Rango release inh; B = Rango-impB inh; C = miR-21 reporter; D = GLA inh pH 4.5
CCCCCCC(=O)N(O)C1CC(=O)N(c2ccc(Cl)cc2)C1=O (stereo not drawn)
  A = 0%; B = 3.2%; C = -10%; D = 9
CCNC(=S)N1CCCC(C(N)=O)C1 (stereo not drawn)
  A = 1%; B = -0.4%; C = -2%; D = 1
COc1cc(/C=N/Nc2ccc(Cl)cc2)ccc1OC(=O)c1cccs1
  A = 25%; B = -1.2%; C = -23%; D = 4
Cc1cccc(C)c1NS(=O)(=O)c1cc2c3c(c1)CCN3C(=O)CC2
  A = -1%; B = -3.7%; C = x; D = x
COCCN(C(=O)COc1ccccc1C#N)c1c(N)n(Cc2ccccc2)c(=O)[nH]c1=O
  A = 14%; B = -5.6%; C = x; D = x
Cc1ccc2c(c1)nnn2C1CCN(S(=O)(=O)c2cccc(S(=O)(=O)N(C)C)c2)CC1
  A = -3%; B = 2.2%; C = 22%; D = -16
Cn1c(=O)n(CCOc2ccccc2Cl)c2ccccc21
  A = -2%; B = 6.4%; C = -66%; D = 2
Cn1c(N)c(C(=O)COC(=O)/C=C/c2cccc(Cl)c2)c(=O)n(C)c1=O
  A = 5%; B = 2.7%; C = x; D = x
O=C(c1cc2n(n1)C(C(F)(F)F)CC(c1ccco1)N2)N1CCc2ccccc2C1 (stereo not drawn)
  A = -19%; B = -0.7%; C = -4%; D = 0
CC(=O)c1cccc(NC(=O)/C(=C\c2cccnc2)NC(=O)c2ccco2)c1
  A = 10%; B = -1.0%; C = -2%; D = 0
N/C(=N\OC(=O)c1ccco1)c1cccc(Br)c1
  A = 11%; B = 1.0%; C = -63%; D = 3
CCOc1cc(-c2nc(C)c(C(C)=O)n2O)ccc1OCC(=O)Nc1ccc(F)cc1
  A = -4%; B = 2.6%; C = 1%; D = -1
CCCC(=O)Nc1ncnc2c1ncn2[C@@H]1O[C@@H]2OP(=O)(O)OC[C@H]2[C@H]1OC(=O)CCC
  A = -13%; B = -2.8%; C = x; D = x
CC1=CC(C)(C)[N+](C)(C)c2ccc(C)cc21
  A = 15%; B = 6.7%; C = -1%; D = 11
O=C(c1ccccc1)c1ccc(Oc2ccc([N+](=O)[O-])cc2[N+](=O)[O-])cc1
  A = 0%; B = -0.8%; C = x; D = x
Cc1ccc(-c2nnc(CCC(=O)NCc3csc(C)n3)o2)s1
  A = 31%; B = -3.4%; C = -5%; D = -7
COC(=O)Cc1cc(=O)n2[nH]c(C(F)(F)F)nc2n1
  A = -6%; B = 4.7%; C = -3%; D = 8

(listing goes on)
Key to letters: A = Rango release inh; B = Rango-impB inh; C = miR-21 reporter; D = GLA inh pH 4.5
O=c1c2ccccc2cnn1Cc1nnc(-c2cccs2)o1
  A = -1%; B = 0.0%; C = -17%; D = x
Cc1nn(C)c(C)c1NC(=O)COc1ccccc1C#N
  A = 21%; B = -4.9%; C = x; D = x
C=CCN1C(=O)/C(=C\c2ccc(OC(=O)c3ccco3)c(OC)c2)SC1=S
  A = -12%; B = 16%; C = -2%; D = -9
CCN1CCCC1CNC(=O)Cn1cc2c(n1)CCC(C)C2 (stereo not drawn)
  A = 10%; B = 4.9%; C = -4%; D = -5
O=C(NCCSc1c[nH]c2ccccc12)c1ccco1
  A = -11%; B = -0.1%; C = -26%; D = 4
O=C(O)c1ccc2nc(CO)[nH]c2c1
  A = -1%; B = 1.5%; C = -16%; D = -1
CSCCC(NC(N)=O)C(=O)NCc1ccccc1Cl (stereo not drawn)
  A = 0%; B = -0.1%; C = -2%; D = 11
CC(Nc1cc(N2CCN(S(=O)(=O)N(C)C)CC2)ccc1[N+](=O)[O-])c1ccccc1 (stereo not drawn)
  A = 25%; B = 2.4%; C = -3%; D = -13
CCOC(=O)C1(C)NC(c2ccco2)C2C(=O)N(c3ccc(C)cc3)C(=O)C21 (stereo not drawn)
  A = u; B = -1.0%; C = 2%; D = -9
CCCCC(CC)C(=O)Nc1cccc(SC)c1 (stereo not drawn)
  A = 1%; B = -1.2%; C = -3%; D = -5
CC(=O)N1CSCC1C(=O)N1CCN(c2ccc(N3CCOCC3)nn2)CC1 (stereo not drawn)
  A = -18%; B = -2.8%; C = -3%; D = 7
